Screening data deposited in PubChem BioAssay by Broad Institute.
MITF inh: inhibitors of MITF; 0.28% of 37,000 active; TRPM1 promoter luciferase, luminescence, 24 h; inhibition, % (concentration not given with the values); AID 2240;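 active = most replicates at 85% or more, or half of them and the mean; inconclusive = half reach 85% but not the mean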;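 also: human melanocyte line stably carrying TRPM1 promoter luciferase reporter; 0% = vehicle wells and 100% = a positive control; the first replicate is given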
Hedgehog inh: blocks Sonic Hedgehog signaling; 2.1% of 22,000 active; inhibition, % (no concentration beside the values); Shh-LIGHT2 Gli-luciferase reporter, 30 h;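 active = replicate mean of 65% or more; inconclusive = mean lower but half the replicates past it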;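 also: pathway switched on by Shh-conditioned medium diluted 1 in 25 in low serum; 100 nL library stock added to about 40 µL; 0% = median of neutral wells and 100% = positive control level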
PD-1 reverse act: activators reversing PD-1 mediated T-cell inhibition; primary human CD4 T cells, PD-L1 beads, CellTiter-Glo 96 h; activation, % (no concentration beside the values); 29,000 tested, under 10 active; AID 2316;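 active = replicate mean of 50% or more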;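 also: 0% = median vehicle wells and 100% = positive control; 100 nL library stock added to about 50 µL; numbers are from one replicate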
YB-1 expression: YB-1 expression inhibition. U2OS, qRT-PCR YB-1 vs CDIP delta delta Cp, 16 h; active compounds read high; zero = DMSO, each unit about twofold. delta delta Cp (YB-1 minus CDIP) (no concentration beside the values). 0.37% of 30,000 active. AID 434959;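 active = delta delta Cp rounded down to an integer at or above 3, about 3 SD of DMSO wells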;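 also: higher means less YB-1 transcript or more CDIP transcript relative to DMSO; stock transfer was 100 nL into about 100 µL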
Active calls of the source: *; ? = inconclusive; nt = not tested or not shown. An excerpt, so the mix of outcomes need not match the whole.

smiles | Hedgehog inh | MITF inh | YB-1 expression | PD-1 reverse act
C[C@H](CO)N1C[C@H](C)[C@@H](CN(C)CC2CC2)Oc2c(NC(=O)c3ccncc3)cccc2C1=O | ? | -1 | -0.066 | -0.6
C[C@H]1CN([C@@H](C)CO)C(=O)Cc2cc(NS(=O)(=O)c3ccccc3)ccc2O[C@@H]1CN(C)CC1CCCCC1 | -20 | -2 | 0.36 | -2.8
CCn1cc(C(=O)OCc2ccc3nonc3c2)c(=O)c2ccc(C)nc21 | nt | 15 | nt | 0.8
O=C(CS(=O)(=O)Cc1ccccc1)Nc1cccnc1 | nt | -8 | nt | 1.4
CC(NS(=O)(=O)c1ccc(Cl)cc1)C(=O)Nc1c(F)cccc1F (configuration not stated) | nt | -6 | nt | -0.2
c1ccc(C2CN3CCSC3=N2)cc1 (configuration not stated) | -23 | -8 | -0.36 | nt
COc1ccc(NC(=O)N(C)C[C@@H]2Oc3ccc(NC(=O)C4CC4)cc3C(=O)N([C@@H](C)CO)C[C@H]2C)cc1 | nt | 6 | 0.063 | 0.2
COc1ccc(NC(=O)CN2CCN(S(=O)(=O)N(C)C)CC2)cc1 | nt | -14 | nt | 2.6
CC(C)NC(=O)N(C)C[C@H]1Oc2ccc(NC(=O)Nc3ccc(F)cc3)cc2C(=O)N([C@@H](C)CO)C[C@@H]1C | nt | -2 | nt | 0.3
COc1ccccc1CCNC(=O)c1ccoc1C | nt | -49 | nt | 1.2
C[C@H]1CN([C@@H](C)CO)C(=O)c2cccc(NC(=O)c3ccncc3)c2O[C@@H]1CN(C)C(=O)Nc1ccc(C(F)(F)F)cc1 | -32 | -1 | 0.028 | 1.6
COc1ccc(CN(C)C[C@H]2Oc3c(NC(=O)Nc4ccc(C(F)(F)F)cc4)cccc3C(=O)N([C@@H](C)CO)C[C@H]2C)cc1 | -30 | -3 | 0.67 | nt
Cc1ccc(S(=O)(=O)Nc2cccc3c2O[C@H](CN(C)C(=O)Nc2cccc4ccccc24)[C@H](C)CN([C@H](C)CO)C3=O)cc1 | 11 | 13 | -0.15 | 1.0
C[C@H](CO)N1C[C@H](C)[C@H](CN(C)C(=O)Nc2ccccc2)Oc2c(NC(=O)Nc3ccc(F)cc3)cccc2C1=O | -32 | 17 | 3* | -1.2
Cc1noc(C)c1S(=O)(=O)Nc1ccc2c(c1)C(=O)N([C@H](C)CO)C[C@H](C)[C@H](CN(C)C(=O)Nc1ccc3c(c1)OCO3)OCCCC[C@@H](C)O2 | -5 | -14 | -0.23 | nt
C[C@@H]1CCCCO[C@@H](CN(C)Cc2ccc3c(c2)OCO3)[C@@H](C)CN([C@H](C)CO)C(=O)c2cc(N(C)C)ccc2O1 | -16 | -11 | 0.1 | nt
Cc1noc(C)c1S(=O)(=O)Nc1ccc2c(c1)C(=O)N([C@@H](C)CO)C[C@@H](C)[C@@H](CN(C)S(C)(=O)=O)O2 | -26 | 3 | -0.22 | 1.1
N#Cc1c(-c2cccs2)cc(-c2ccc(C(=O)O)cc2)nc1SCc1cccs1 | 7 | 6 | 0.38 | -0.3
CCN(CC)CCOc1ccccc1 | 0 | 19 | 0.31 | -0.1
CNC[C@H]1Oc2ccc(NC(=O)Cc3ccccc3)cc2CC(=O)N([C@@H](C)CO)C[C@@H]1C | -27 | -3 | -0.52 | 2.1
CNC[C@H]1Oc2ccc(NC(=O)Cn3cnnn3)cc2CC(=O)N([C@@H](C)CO)C[C@H]1C | 5 | 4 | -0.073 | 2.2
CNC(=O)Oc1ccc2c(c1)[C@]1(C)CCN(C)[C@@H]1N2C | -40 | -6 | 0.046 | nt
COc1ccc(-c2noc(CSc3nnc(-c4ccccc4)n3C)n2)cc1 | nt | -9 | nt | 0.2
C[C@H](CO)N1C[C@H](C)[C@H](CN(C)CC2CC2)Oc2ccc(NC(=O)Cc3ccccc3)cc2C1=O | -27 | 3 | 0.15 | 1.5
C[C@H]1CN([C@@H](C)CO)C(=O)c2cc(NS(=O)(=O)c3cccs3)ccc2O[C@@H]1CN(C)S(=O)(=O)c1ccc(Cl)cc1 | nt | 1 | -0.5 | nt

Additional records.
smiles | Hedgehog inh | MITF inh | YB-1 expression | PD-1 reverse act
C[C@@H]1CN([C@@H](C)CO)C(=O)c2cccc(NC(=O)Nc3ccc4c(c3)OCO4)c2O[C@H]1CN(C)S(C)(=O)=O | -23 | -7 | 0.031 | -1.1
CCc1c(C)sc(NC(=O)COc2ccccc2)c1C(=O)N1CCOCC1 | nt | 8 | nt | -1.2
COc1ccc(S(=O)(=O)Nc2cccc3c2O[C@H](CN(C)S(=O)(=O)c2ccccc2)[C@H](C)CN([C@@H](C)CO)C3=O)cc1 | 3 | 11 | -0.68 | -0.7
CC(C)NC(=O)Nc1ccc2c(c1)C(=O)N([C@H](C)CO)C[C@H](C)[C@@H](CN(C)C(=O)Nc1ccc(C(F)(F)F)cc1)OCCCC[C@@H](C)O2 | 39 | -8 | -0.34 | -0.5
C[C@@H]1CN([C@@H](C)CO)C(=O)c2cc(NC(=O)c3ccncc3)ccc2O[C@H]1CN(C)Cc1ccc(-c2ccccc2)cc1 | nt | 7 | -0.23 | -0.5
Cc1ccc(S(=O)(=O)Nc2cccc3c2O[C@H](CN(C)C(=O)Nc2ccc4c(c2)OCO4)[C@H](C)CN([C@H](C)CO)C3=O)cc1 | -20 | 15 | 0.089 | -0.1
COc1ccc(S(=O)(=O)Nc2cccc3c2O[C@H](CN(C)C(=O)NC2CCCCC2)[C@@H](C)CN([C@H](C)CO)C3=O)cc1 | ? | -4 | -0.025 | nt
O=[N+]([O-])c1ccccc1-c1ccc(-c2nn3c(-c4ccccc4)nnc3s2)o1 | nt | -42 | nt | -1.8
C[C@@H]1CN([C@H](C)CO)C(=O)Cc2cc(NC(=O)c3ccncc3)ccc2O[C@H]1CN(C)C(=O)Nc1ccc(F)cc1 | 17 | 0 | -0.37 | -1.4
CN(c1ccccc1)S(=O)(=O)c1ccc(Cl)cc1 | nt | 20 | -1 | -0.4
CSc1nnc2c(n1)OC(C1CC=C(C)CC1)Nc1ccccc1-2 (configuration not stated) | -14 | -1 | -0.086 | 0.2
CCOC(=O)c1[nH]c(C(=O)O)c(CC)c1C | -23 | -22 | -0.43 | 0.2
C/C(=N\O)C(C)(C)Nc1ccc(C(C)(C)C)cc1 | nt | -63 | 0.037 | 1.6
CCOc1cc(N2CCOCC2)c(OCC)cc1NC(=O)C(C)(C)C | 23 | 23 | 0.1 | -0.4
COc1ccc(NC(=O)N(C)C[C@@H]2Oc3ccc(NC(=O)Nc4ccc(F)cc4)cc3C(=O)N([C@@H](C)CO)C[C@H]2C)cc1 | -6 | -1 | -0.082 | -0.8
COc1ccc(S(=O)(=O)N(C)C[C@H]2Oc3ccc(NC(=O)Nc4cccc5ccccc45)cc3C(=O)N([C@@H](C)CO)C[C@@H]2C)cc1 | nt | 13 | 0.16 | -0.5
C[C@@H]1CN([C@@H](C)CO)C(=O)c2cccc(NS(=O)(=O)c3ccc(F)cc3)c2O[C@@H]1CN(C)C(=O)Nc1ccc2c(c1)OCO2 | -58 | 2 | 0.11 | 1.0
CC1(C)Cc2nc3nc(SCC(=O)Nc4ccccc4)nc(N)c3cc2CO1 | nt | -54 | nt | -1.6
C[C@@H]1CN([C@@H](C)CO)C(=O)c2cc(NC(=O)Nc3ccc(F)cc3)ccc2O[C@H]1CN(C)Cc1ccccc1 | nt | 1 | 0.033 | 1.5
C[C@H](CO)N1C[C@H](C)[C@@H](CN(C)C(=O)Nc2ccc3c(c2)OCO3)Oc2ccc(NS(C)(=O)=O)cc2C1=O | -2 | -7 | 0.14 | nt
C[C@@H]1CN([C@H](C)CO)C(=O)c2cc(NS(C)(=O)=O)ccc2O[C@H]1CN(C)S(=O)(=O)c1ccccc1 | -11 | -6 | -0.36 | -0.1
CCOc1ccccc1OCC(=O)Nc1cc(Cl)ccc1OC | nt | 8 | nt | -3.8
C[C@@H]1CN([C@H](C)CO)C(=O)Cc2cc(NC(=O)C3CCCCC3)ccc2O[C@@H]1CN(C)C(=O)Nc1cccc2ccccc12 | 0 | 0 | nt | -2.4
C[C@@H]1CN([C@H](C)CO)C(=O)Cc2cc(NS(=O)(=O)c3ccc(Cl)cc3)ccc2O[C@@H]1CN(C)S(=O)(=O)c1ccc(Cl)cc1 | 6 | -12 | 0.24 | 0.7
C[C@H](CO)N1C[C@H](C)[C@H](CN(C)C(=O)Nc2ccc(F)cc2)Oc2ccc(NC(=O)Nc3ccccc3)cc2CC1=O | -22 | -17 | -0.33 | -0.7

Later entries:
smiles | Hedgehog inh | MITF inh | YB-1 expression | PD-1 reverse act
COc1ccc(S(=O)(=O)n2nc(OC(=O)C(C)(C)C)cc2N)cc1 | 5 | 8 | -0.13 | -1.5
C[C@@H]1CC[C@]2(C)[C@H](CC[C@@H](O)[C@]2(C)O)[C@@]1(C)CC(=O)c1ccoc1 | -14 | -4 | -0.41 | 0.5
C[C@H](CO)N1C[C@H](C)[C@H](CN(C)S(C)(=O)=O)Oc2c(NC(=O)c3ccc(-c4nccs4)cc3)cccc2C1=O | -33 | -18 | 0.33 | 2.5
Cc1noc(C)c1S(=O)(=O)N(C)C[C@H]1Oc2ccc(NS(=O)(=O)c3ccccc3)cc2C(=O)N([C@H](C)CO)C[C@H]1C | -12 | -5 | -0.066 | -0.5
COc1ccccc1CCNC(=O)c1cc(-c2ccccc2)nc2ccccc12 | nt | 8 | nt | -1.6
O=C1C(=O)N(Cc2ccco2)C(c2cccs2)C1C(=O)c1cccs1 (configuration not stated) | nt | -8 | nt | 5.6
O=C(CSC1N=C2C=CC=CC2O1)c1ccccc1 (configuration not stated) | -98 | -32 | 0.17 | -1.4
C[C@@H]1CN([C@H](C)CO)C(=O)c2cc(NC(=O)Nc3ccc(F)cc3)ccc2O[C@H]1CN(C)Cc1ccc(C(F)(F)F)cc1 | -13 | 69 | 0.27 | -9.9
CC(C)=CCC/C(C)=C/CC(O)/C(C)=C/Cc1cc(C(=O)O)ccc1O (configuration not stated) | 17 | 5 | 0.15 | -0.5
CNC[C@@H]1Oc2ccc(NC(=O)Cc3ccccc3)cc2C(=O)N([C@H](C)CO)C[C@H]1C | nt | 0 | -0.4 | 2.2
CC(C)NC(=O)Nc1cccc2c1O[C@@H](CN(C)S(=O)(=O)c1cccs1)[C@H](C)CN([C@H](C)CO)C2=O | 8 | 0 | -0.12 | -0.2
C[C@H]1CN([C@@H](C)CO)C(=O)c2cc(NC(=O)Cc3ccccc3)ccc2O[C@@H]1CN(C)Cc1ccncc1 | nt | 4 | -0.59 | -6.9
C[C@@H]1CN([C@@H](C)CO)C(=O)c2cc(NC(=O)CCCN(C)C)ccc2O[C@H]1CN(C)Cc1ccccc1 | -13 | 1 | -0.2 | nt
C[C@H]1CN([C@@H](C)CO)C(=O)Cc2cc(NC(=O)Nc3cccc4ccccc34)ccc2O[C@@H]1CN(C)CC1CC1 | nt | -8 | 0.18 | 0.5
COc1ccc(N(CC(=O)Nc2cc(C)ccc2C)S(C)(=O)=O)cc1OC | nt | -11 | nt | -1.5
C[C@H]1CN([C@@H](C)CO)C(=O)Cc2cc(NC(=O)NC3CCCCC3)ccc2O[C@@H]1CN(C)C(=O)Nc1ccc(F)cc1 | 54 | -17 | -0.054 | 0.4
C[C@@H]1CCCCO[C@@H](CN(C)Cc2ccc(Cl)c(Cl)c2)[C@@H](C)CN([C@H](C)CO)C(=O)c2cc(NS(=O)(=O)c3ccc(Cl)cc3)ccc2O1 | -57 | 55 | 0.3 | -8.8
Cc1ccc(S(=O)(=O)N(C)C[C@H]2Oc3ccc(NC(=O)Nc4cccc5ccccc45)cc3CC(=O)N([C@H](C)CO)C[C@H]2C)cc1 | 31 | 34 | -0.19 | -1.4
CCCc1c(C(=O)O)cc2c(c1O)C(=O)c1c(O)cccc1C2=O | -37 | -20 | -0.39 | -0.2
C[C@@H]1CN([C@H](C)CO)C(=O)c2cccc(NS(=O)(=O)c3cn(C)cn3)c2O[C@H]1CN(C)C(=O)Nc1ccc(C(F)(F)F)cc1 | -1 | -11 | 0.089 | nt
COc1ccc(NC(=S)NCc2cc(C)n(C)n2)cc1OC | nt | -2 | nt | 1.3
Cc1ccc(S(=O)(=O)N(C)C[C@@H]2Oc3c(NC(=O)C4CC4)cccc3C(=O)N([C@@H](C)CO)C[C@H]2C)cc1 | 17 | 3 | 0.076 | 1.4

Gathered by group: the entries above with a tert-butyl group (3)
smiles | Hedgehog inh | MITF inh | YB-1 expression | PD-1 reverse act
C/C(=N\O)C(C)(C)Nc1ccc(C(C)(C)C)cc1 | nt | -63 | 0.037 | 1.6
CCOc1cc(N2CCOCC2)c(OCC)cc1NC(=O)C(C)(C)C | 23 | 23 | 0.1 | -0.4
COc1ccc(S(=O)(=O)n2nc(OC(=O)C(C)(C)C)cc2N)cc1 | 5 | 8 | -0.13 | -1.5
